RE007 growth inh – less growth of the S. pombe RE007 Vpr strain; S. pombe RE007 Vpr strain, BacTiter-Glo ATP luminescence, 24 h; control for the full effect not named in the record; Potency, µM (top dose mostly 92.2 µM), for inactives: at the highest dose activity change, negative = less growth; 0.21% of 360,000 active; AID 651644; active = well fitted falling curve with a large enough effect; inconclusive = small, poorly fitted or top-dose-only effect; inactive = no such curve, though single readings can be large or run the other way;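 further: on the % scale 0 is the no-effect control and ±100 the full control effect; nearly all actives have a fitted effect of over 50% in size; the assay follows cell death caused by Vpr and the record does not say whether a fall means rescue or toxicity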
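Fission yeast RE007 carrying one integrated HIV-1 vpr copy, seeded at OD 0.01 in PMG+AL medium with 23 nL pinned compound. Grown 24 h at 30 degrees; viability read by BacTiter-Glo luminescence after 5 min.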
SARS PLP yeast – blocks SARS-CoV papain-like protease in a yeast assay. S. cerevisiae expressing SARS-CoV PLpro, growth rescue; control for the full effect not named in the record. Potency, µM (series often up to 32.9 µM), for inactives: at the top dose activity, positive = growth rescue. AID 485353. 0.19% of 330,000 active; active means well fitted rising curve with a large enough effect; inconclusive means small, poorly fitted or top-dose-only effect; inactive means no such curve, though single readings can be large or run the other way; further: 0% is about no effect; nearly all actives have a fitted effect of over 55% in size; growth read by luminescence after 48 h
StopGo reporter – lowers the luciferase signal of an FMDV 2A StopGo reporter | human cells with a luciferase reporter of 2A StopGo recoding; control for the full effect not named in the record | Potency, µM (titrated, usually from 57.9 µM), for the others: at the top dose signal change, negative = less light | 1.2% of 410,000 active | AID 1159524; active = well fitted falling curve with a large enough effect; inconclusive = small, poorly fitted or top-dose-only effect; inactive = no such curve, though single readings can be large or run the other way; tested in HEK293T cells; further: on the % scale 0 is the no-effect control and ±100 the full control effect; nearly all actives have a fitted effect of over 45% in size; luciferase light after 4 h
Starred values were filed as active, the others as inactive; ? = inconclusive; & = joins results of further samples; [ ] = dose if it differs, or a comment. Potency means the concentration at half of the fitted maximal effect. A portion of the library; rates above refer to the full screens.

Preview:
SMILES	RE007 growth inh	SARS PLP yeast	StopGo reporter
O=C(Nc1cccc(F)c1)c1cc(S(=O)(=O)N2CCOCC2)ccc1N1CCCC1	23%	-7%	-21%
CN(C(=O)COC(=O)CCCc1c[nH]c2ccccc12)c1c(N)n(Cc2ccccc2)c(=O)[nH]c1=O	12%	2%[6.58 µM]	0%
COc1ccc(OC)c(NC(=O)CSc2nc3[nH]c(=O)cc(O)c3s2)c1	23%	4%	3%

Main list (from the top)
SMILES	RE007 growth inh	SARS PLP yeast	StopGo reporter
O=C(Nc1cccc(F)c1)c1cc(S(=O)(=O)N2CCOCC2)ccc1N1CCCC1	23%	-7%	-21%
CN(C(=O)COC(=O)CCCc1c[nH]c2ccccc12)c1c(N)n(Cc2ccccc2)c(=O)[nH]c1=O	12%	2%[6.58 µM]	0%
COc1ccc(OC)c(NC(=O)CSc2nc3[nH]c(=O)cc(O)c3s2)c1	23%	4%	3%
CCN1CCN(C(=S)NCC2CCCO2)CC1 (stereo not drawn)	11%	1%	-9%
C[C@@H](OC(=O)c1[nH]cnc1C(=O)N1CCc2ccccc2C1)c1ccccc1	3%	-3%	-8%
C#CCOCCOCCOCCNc1nc(N2CCN(C(=O)[C@H]([C@@H](C)CC)n3cc(CCCCN)nn3)CC2)nc(N2CCN(C(=O)[C@H](CCCCN)n3cc(CCCC)nn3)CC2)n1	4%	4%	-5%
COC(=O)C1=C(c2ccc(OC(F)(F)F)cc2)C[C@@H]2CC[C@H]1N2C(=O)N1CCOCC1	15%	5%	?
CC(Sc1ccsc1[N+](=O)[O-])C(=O)N1CCN(c2ccccn2)CC1 (stereo not drawn)	-8%	-1%	-21%
O=S(=O)(c1ccc(SCc2ccc(Cl)cc2)nc1)N1CCCC1	-25%	5%	?
Cc1cc(C)c(OCC(=O)NCC(c2ccco2)N2CCCCC2)c(C)c1 (stereo not drawn)	-15%	0%	-30%
COc1ccc(NCC(=O)Nc2cccc(S(=O)(=O)N3CCCC3)c2)cc1Cl	3%	1%	-11%
c1cc2c(cc1C1OCC3C(c4ccc5c(c4)OCO5)OCC13)OCO2 (stereo not drawn)	4%	-11%	-23%
CC[C@]12c3[nH]c4ccc(OC)cc4c3CCN1C(=O)C(CC(=O)NCC13CC4CC(CC(C4)C1)C3)C[C@@H]2C(=O)N1CCN(C(=O)C2CC2)CC1 (stereo partly drawn)	-10%	-14%	?
CCOC(=O)C1=CN(Cc2cccc(-c3cccnc3)c2)S(=O)(=O)N(C)C1C (stereo not drawn)	2%	-40%	?
CC1(C)CC(=O)C=C(/C=C/c2ccccc2)C1	-12%	-2%	-5%
COc1ccc(C)cc1NC(=O)CSc1cccc[n+]1[O-]	-10%	2%	-2%
CC(c1ccc(F)cc1)n1cc(S(=O)(=O)N2CCCC2)ccc1=O (stereo not drawn)	0%	5%	-5%
CC1CCCC(C)N1C(=S)SCC(=O)O (stereo not drawn)	-7%	2%	-6%
NCCCC[C@@H](C(=O)NCCCCCCCCCCC(=O)N1CCNCC1)n1cc(CCO)nn1	-2%	0%	-9%
CC1CCC2(CC1)NC(=O)N(CC(=O)Nc1cccc(S(=O)(=O)N3CCCC3)c1)C2=O (stereo not drawn)	-12%	1%	-11%
CCN(CC)S(=O)(=O)c1cc(NC(=O)CSc2nnc(N)s2)ccc1C	-2%	-5%	-12%
CCN(CC)C(=O)[C@H]1C[C@H](CC(=O)NC(C)(C)C)C(=O)N2CCc3c([nH]c4ccc(Cl)cc34)[C@]12C	11%	6%	-27%
Cc1cccc(NC(=O)c2ccc3c(Cl)c4c(nc3c2)CCCC4)n1	13%	-1%	-19%
CC1CCCCC12NC(=O)N(CC(=O)Nc1cccc(S(=O)(=O)N3CCCCC3)c1)C2=O (stereo not drawn)	4%	-1%	-16%
O=C(NCc1ccco1)c1cccc2c1C(=O)c1ccc(N3CCC(Cc4ccccc4)CC3)cc1S2(=O)=O	-3%	-1%	0%

Filtered by structure, the compounds so far containing two or more sulfur atoms
SMILES	RE007 growth inh	SARS PLP yeast	StopGo reporter
COc1ccc(OC)c(NC(=O)CSc2nc3[nH]c(=O)cc(O)c3s2)c1	23%	4%	3%
CC(Sc1ccsc1[N+](=O)[O-])C(=O)N1CCN(c2ccccn2)CC1 (stereo not drawn)	-8%	-1%	-21%
O=S(=O)(c1ccc(SCc2ccc(Cl)cc2)nc1)N1CCCC1	-25%	5%	?
CC1CCCC(C)N1C(=S)SCC(=O)O (stereo not drawn)	-7%	2%	-6%
CCN(CC)S(=O)(=O)c1cc(NC(=O)CSc2nnc(N)s2)ccc1C	-2%	-5%	-12%

Carrying on:
SMILES	RE007 growth inh	SARS PLP yeast	StopGo reporter
CN(C)S(=O)(=O)c1ccc(N=Cc2c(C(F)(F)F)[nH][nH]c2=O)cc1	-2%	3%	2%
CCC(C)Sc1ccc([C@@H]2[C@H]3C(=O)N(CC)C(=O)[C@H]3[C@]3(C(=O)OC)CCCN23)cc1OC (stereo partly drawn)	10%	-5%	-17%
CCC1(c2ccc(F)cc2)NC(=O)N(CC(=O)N2CCc3ccccc32)C1=O (stereo not drawn)	14%	8%	3%
CC1(C)CC[C@]2(CO)CC[C@]3(C)C(=CCC4[C@@]5(C)CC[C@H](O)[C@@](C)(CO)C5CC[C@]43C)[C@@H]2C1 (stereo partly drawn)	-20%	-46%	?
COc1ccc(-c2cn(Cc3ccc(C(N)=O)cc3)c(-c3ccncc3)n2)cc1	-20%	0%	56%[activator]
Cc1ccc(NC(=O)COC(=O)CC2SC(N3CCCC3)=NC2=O)cc1 (stereo not drawn)	4%	-1%	-9%
COc1ccc(S(=O)(=O)Nc2cccc3c2O[C@H](CN(C)S(=O)(=O)c2cccs2)[C@@H](C)CN([C@H](C)CO)C3=O)cc1	-2%	-29%	13%
COCCCNC(=S)Nc1ccc(C)cc1[N+](=O)[O-]	6%	-1%	42%[activator]
CC(=O)c1ccccc1NC(=O)C1CCCN(C(=O)c2ccc(Cl)cc2)C1 (stereo not drawn)	-9%	4%	-21%
NCCOc1ccc(C23CC4CC(CC(C4)C2)C3)cc1	31%	-2%	?
CCC(=O)NCc1ccc2[nH]c(C)cc2c1	5%	0%	7%
O=C(CSc1ccccc1F)NCC1(N2CCCCC2)CCCCC1	-15%	3%[6.58 µM]	1%
Cc1nn(-c2ccccc2)c(C)c1C(=O)OCC(=O)N(C)c1ccccc1	12%	4%	-1%
COc1ccc(CNC(=O)COC(=O)c2sccc2C)cc1OC	-3%	-4%	-10%
Cc1ccc(C)c(Sc2ccc(S(=O)(=O)Nc3ccc(C(=O)O)cc3)cc2)c1	2%	9%	0%
c1ccc(C2(N3CCCCC3)CCCCC2)cc1	-8%	-5%	-21%
CCCn1c(SCC(=O)Nc2cc(Cl)ccc2OC)nc(O)cc1=O	-2%	1%	-18%
COc1ccc(CNC(=O)c2ccc(NS(=O)(=O)c3ccc4[nH]c(=O)[nH]c4c3)cc2)cc1OC	-4%	7%	-4%
CC(C)(C)OC(=O)C[C@H]1C/C=C\C[C@@H](CC(=O)N(CCO)Cc2ccccc2)C(=O)N[C@H](Cc2ccccc2)COC1=O	3%	2%	22%
O=C(C[C@@H]1C/C=C\C[C@H](NC(=O)OCC2c3ccccc3-c3ccccc32)C(=O)OC[C@H]2CCCN2C1=O)N[C@@H](CO)Cc1ccccc1	-15%	-1%	-27%
CCCN(Cc1nc2cc(Cl)ccc2c(=O)[nH]1)C(=O)c1ccc(S(=O)(=O)N2CCCC2)cc1	-15%	1%	-2%
CN1CCN(NC(=O)CSc2ccc(Cl)cc2Cl)CC1	6%	2%	-23%
O=C(COc1ccccc1)OCC(=O)c1ccc(S(=O)(=O)N2CCCCC2)cc1	-3%	3%	-12%
COc1ccc(CCNC(=O)CSc2nnc3ccc(-c4cccnc4)nn23)cc1	6%	3%	-3%
CC(C)(C)C(C(=O)Oc1ccccc1)c1ccccc1 (stereo not drawn)	-8%	-10%	3%

Some entries already given, reduced to RE007 growth inh and SARS PLP yeast:
Compound | RE007 growth inh | SARS PLP yeast
COCCCNC(=S)Nc1ccc(C)cc1[N+](=O)[O-] | 6% | -1%
CC(=O)c1ccccc1NC(=O)C1CCCN(C(=O)c2ccc(Cl)cc2)C1 (stereo not drawn) | -9% | 4%
NCCOc1ccc(C23CC4CC(CC(C4)C2)C3)cc1 | 31% | -2%
CCC(=O)NCc1ccc2[nH]c(C)cc2c1 | 5% | 0%

Remaining list, next part:
SMILES	RE007 growth inh	SARS PLP yeast	StopGo reporter
O=c1oc(-c2ccc(O)c(O)c2)cc2cc(O)cc(O)c12	-5%	0%	31%[activator]
COC(=O)C1=C(c2ccc(-c3ccccc3)c(F)c2)C[C@@H]2CC[C@H]1N2C(=O)N1CCCCC1	1%	4%	?
Cc1ccc(CNC(=O)Cn2cnc3c(OCc4ccccc4)ncnc32)o1	-14%	-4%	-18%
Cc1cc(C)c(C)c(S(=O)(=O)N2CCN(C(=O)c3ccccc3OCc3c(C)noc3C)CC2)c1C	2%	-2%	?
COc1ccc2sc(-c3ccccc3OC)c(-c3ccc(O)cc3)c2c1	-21%	-1%	-16%
CSc1ncccc1C(=O)Nc1cccc(S(=O)(=O)N2CCCCC2)c1	10%	0%	8%
O=C(COC(=O)C1COc2ccccc2O1)Nc1cccc(F)c1 (stereo not drawn)	1%	-7%	-13%
COc1cc(CC(=O)OCC(=O)c2ccc[nH]2)cc(OC)c1OC	4%	-3%	2%
Cc1sc2ncnc(SCC(=O)NNC(=O)c3ccco3)c2c1C	-15%	-1%	-2%
Cc1ccc(NC(=O)COC(=O)CN2CCCCCC2=O)c(C)c1	-3%	-4%	5%
CCN1C(=O)[C@H]2[C@@H](c3ccc(-c4ccc(F)cc4)cc3)N[C@@](C)(C(=O)OC)[C@H]2C1=O	0%	-20%	?
O=C(NCc1ccccc1CN1CCCC1)C1CCN(C(=O)c2ccc(F)cc2)CC1	-6%	-1%	63%[activator]
N#Cc1ccc(C(=O)N(Cc2ccco2)c2c(N)n(Cc3ccccc3)c(=O)[nH]c2=O)cc1	-7%	-1%[6.58 µM]	-11%
O=C(Cc1ccccc1)NN1C(=O)/C(=C/c2ccccc2C(=O)O)SC1=S	-3%	2%	-13%
CCc1noc(C)c1C(=O)OCC(=O)NCc1ccccc1	5%	-3%	7%
CC(C)CC1Nc2ncnc(N3CCOCC3)c2N(Cc2ccccc2)C1=O (stereo not drawn)	-5%&-2%	-20%	-12%&-18%
[O-][n+]1c2ccccc2c2n1CCN=C2c1ccc(Cl)cc1	12%	-1%	20%
CCCN1CCN(C(=O)c2ccc(-c3ccc([N+](=O)[O-])cc3)o2)CC1	4%	1%	-23%
Cc1cc(Cl)ccc1Oc1ccccc1C(=O)CC#N	16%	-4%	-6%
CCN1CCN(c2ccc(S(=O)(=O)N3CCOCC3)cc2NC(=O)c2ccc(C)cc2C)CC1	0%	3%	29%
Nc1ncnc2c1ncn2[C@@H]1O[C@H](CNCc2cccn2-c2nccs2)[C@@H](O)[C@H]1O	0%	-2%	-29%
CC(C)CC(=O)Nc1ccc(C(=O)COC(=O)C2CC(=O)N(Cc3ccccc3)C2)cc1 (stereo not drawn)	-1%	6%	-16%
O=C(Nc1ccc(Cl)cc1)c1nc[nH]c1C(=O)NCCCCNC(=O)c1[nH]cnc1C(=O)Nc1ccc(Cl)cc1	8%	-1%	-14%
CN(CC(=O)Nc1cccc(F)c1)C(=O)COc1ccc2c(c1)CCC2	-8%	-8%	21%
O=C(/C=C/c1ccco1)Nc1ccc2nc3n(c(=O)c2c1)CCCC3	2%	-1%	38%[activator]
(listing goes on)
SMILES	RE007 growth inh	SARS PLP yeast	StopGo reporter
COc1ccc(C)cc1NC(=S)Nc1ccccc1SC	-1%	-1%	16%
COc1ccc(N(CCC(=O)NCCc2ccccc2)S(=O)(=O)c2ccc(C)cc2C)cc1	2%	-10%	50%[activator]
CCN1C(=O)[C@@H]2[C@@H](c3ccc(-c4ccc(OC)cc4)cc3)N3CCC[C@@]3(C(=O)OC)[C@@H]2C1=O	18%	1%	-16%
CC(O)[C@H]1CC[C@H]2[C@@H]3CC[C@H]4C[C@H](O)CC[C@]4(C)[C@H]3[C@H](O)C[C@]12C (stereo partly drawn)	-10%	3%	-10%
COc1cc(OC)cc(C(=O)Nc2ncn[nH]2)c1	8%	-1%	-4%
C=CCSC1=Nc2cc(OC)c(OC)cc2C2=NC(=O)CN12	-3%	0%	-8%
Cc1cccc(OCC(=O)N(C)CC(=O)Nc2cccc(F)c2)c1C	-4%	-1%	-13%
COc1ncc(-c2ccc3c(c2)S(=O)(=O)c2cccc(C(=O)NCc4ccco4)c2C3=O)cn1	-9%	1%	-12%
CSc1cccc(NC(=O)COC(=O)c2ccccn2)c1	-13%	-1%	-2%

Assay outcomes as filed in PubChem BioAssay.
